Screening results: PubChem, several laboratories
T cruzi repl – blocks replication of Trypanosoma cruzi; actives 1.4% (n = 300,000); T. cruzi beta-gal in NIH3T3, luminescence, 90 h; inhibition, % (no concentration beside the values);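 active = mean inhibition across valid replicates above about 55%, limit read from the data; inconclusive = mean below that limit but half or more replicates reach it; inactive = mean below it, under half of replicates reach it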;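 note: signal also drops with host cell toxicity which is not excluded here; 0% = plate median of DMSO wells and 100% = zero luminescence signal; higher percent means less beta-gal luminescence so fewer parasites; stock transfer was 50 nL into about 50 µL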
Vif A3G – inhibitors of Vif binding to APOBEC3G peptide, primary screen, biochemical, TR-FRET, GST-Vif 1-94, biotin-A3G peptide, dose response retest (AID 1117319); inhibition, %, or IC50 in µM where a hit was titrated; TR-FRET GST-Vif / biotin-A3G peptide binding; higher % means a stronger effect; test concentration not given here; strong numbers were not always called active; actives 0.57% (n = 260,000);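 active = above the screen mean plus three standard deviations and confirmed in dose response; inconclusive = results disagree or hit not tested in dose response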;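 note: Vif residues 1-94 fused to GST binding biotinylated APOBEC3G peptide 110-148; 0% = full assay without inhibitor and 100% = GST in place of GST-Vif; retest series ran down from 100 µM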
Bfl-1 A1 inh – inhibitors of the anti-apoptotic protein A1, read as caspase activation; MEF A1-2A-BIM cells, Caspase-Glo 3/7 luminescence, 3 h; percent of clofoctol response, vehicle zero; caspase activation, % (test concentration not listed); actives 0.066% (n = 330,000);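 active = over half of replicate activation scores above 10%, or exactly half above 10 with the replicate mean above 10; inconclusive = replicate mean below 10 yet half the replicates above 10; inactive = over half of replicates below 10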;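 note: wells of about 30 µL received 50 nL stock; many hits fall short of the cut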
AF4-AF9 inh – MLL-AF4/AF9 protein interaction inhibition; P42568; AlphaScreen, biotin-AF4 peptide binding to FLAG-AF9; inhibition, % at 10 µM; actives 0.47% (n = 350,000);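 active = every replicate reaching a set inhibition limit, whatever the replicate mean, cut at about 25% in these data; inconclusive = mean inhibition reaches that limit but some replicates miss it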;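 note: 0% = plate neutral control median and 100% = total signal loss; the record names both 10 and 1 µM as test concentration; the first replicate is given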
Target sequence (P42568 whole entry, looked up): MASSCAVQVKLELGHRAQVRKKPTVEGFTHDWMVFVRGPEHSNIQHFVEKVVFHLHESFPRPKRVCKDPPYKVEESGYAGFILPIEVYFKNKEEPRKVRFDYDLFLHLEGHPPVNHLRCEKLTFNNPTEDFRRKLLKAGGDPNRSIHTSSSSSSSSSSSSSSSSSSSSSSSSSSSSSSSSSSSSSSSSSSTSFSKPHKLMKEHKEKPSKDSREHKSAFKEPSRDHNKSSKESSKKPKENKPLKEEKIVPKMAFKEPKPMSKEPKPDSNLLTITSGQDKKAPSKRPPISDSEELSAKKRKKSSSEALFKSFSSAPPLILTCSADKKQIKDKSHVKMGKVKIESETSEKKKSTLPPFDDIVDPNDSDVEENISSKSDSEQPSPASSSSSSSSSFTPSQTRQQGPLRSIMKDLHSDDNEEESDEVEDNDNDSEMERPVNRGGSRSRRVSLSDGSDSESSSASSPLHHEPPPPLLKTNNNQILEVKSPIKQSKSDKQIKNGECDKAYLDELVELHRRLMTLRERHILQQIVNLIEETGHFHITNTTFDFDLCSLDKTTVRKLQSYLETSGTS
Ecoli rRNA inh – inhibits bacterial ribosomal RNA function over humanized ribosomes. E. coli WT GFP vs humanized-ribosome RFP mutants, fluorescence, 24 h; active compounds read low; DMSO median 0, no signal -100. GFP signal change (wild-type ribosome), % (test concentration not listed). actives 1.6% (n = 350,000);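 active = significant combined selectivity score with lowered wild-type GFP, culture density cut under 30%, mutant RFP and density less affected; inactive = any of these conditions unmet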; note: one replicate is shown; some compounds called inactive have numbers as strong as hits
RanGTP-Imp inh – inhibitors of RanGTP-importin-beta interaction, primary screen, biochemical, FRET, CFP-Ran, YFP-importin-beta, homogeneous. cell-free CFP-Ran/YFP-importin-beta FRET ratio. inhibition, % (no concentration beside the values). actives 1.1% (n = 300,000);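 active = most replicates above 15%; inconclusive = exactly half above 15%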;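 note: 0% = DMSO wells and 100% = Ran loaded with GDP instead of GTP; wells of about 40 µL received 100 nL stock; the first replicate is given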
Calb FLC – affects C. albicans growth with fluconazole | growth inhibition, % (concentration not given with the values) | AID 1979 | C. albicans CaCi-2 (fluconazole-resistant clinical isolate) + fluconazole, Alamar Blue growth, 48 h | actives 0.57% (n = 300,000);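 active = most replicates above 75%; inconclusive = exactly half above 75%; inactive = most below 75%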;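 note: all wells also contain fluconazole at 8 µg/ml as a sub-toxic cotreatment; 0% = median of DMSO wells and 100% = median of geldanamycin control wells; wells of about 8 µL received 7.5 nL stock; the first replicate is given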
Beta cell apopt – blocks beta cell apoptosis. INS-1E cytokine-induced death, ATP luminescence, 48 h; percent of positive-control rescue, neutral wells zero. protection from apoptosis, % (test concentration not listed). actives 0.8% (n = 300,000);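 active = all replicates at 75% or more, or half of them and the mean; inconclusive = half reach 75% but not the mean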;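 note: 0% = cytokine-treated negative control wells and 100% = positive control rescue; higher means more ATP so stronger rescue from cytokine killing; wells of about 40 µL received 100 nL stock; the first replicate is given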
Ecoli rRNA inh OD600 – recorded beside Ecoli rRNA inh, whose call it bears; OD600 change, %; measured here: OD600 growth;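 optical density of the mix in the first replicate; 0 = DMSO median and -100 = no signal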
Ecoli rRNA inh RFP – second read-out of Ecoli rRNA inh, no call of its own (marks repeat the call); RFP signal change, %; measured here: RFP humanized mutant strains;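 first replicate; 0 = DMSO median and -100 = no signal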
Starred values were filed as active, the others as inactive; ? = inconclusive; / = no result given. A portion of the library. The share of hits here may be higher or lower than overall.

SMILES	T cruzi repl	Vif A3G	Bfl-1 A1 inh	AF4-AF9 inh	Ecoli rRNA inh	Ecoli rRNA inh OD600	Ecoli rRNA inh RFP	RanGTP-Imp inh	Calb FLC	Beta cell apopt
CC(C)CCNC(=O)CCCC1=NS(=O)(=O)c2ccccc2N1	-5	-4%	0.8	/	/	/	/	-2.1	-8	-1
CCN(CC(=O)Nc1c(F)cccc1F)C(=O)C1CC(=O)N(c2ccccc2OC)C1 (stereo unspecified)	-12	2%	0.6	8.2	13	14	-1.7	1.5	4	4
O=C(NCc1ccccc1)C(=O)NCC1OCCCN1S(=O)(=O)c1cccs1 (stereo unspecified)	-1	-3%	1.0	0.3	9	15	1.6	-3.2	-4	-7
COc1cc(-c2c(C#N)c(N)nc(SCc3ccncc3)c2C#N)cc(OC)c1OC	53	4%	-0.3	4.2	-14	-15	5.1	8.2	30	-3
CN(Cc1cccc(F)c1)C(=O)c1cc(=O)[nH]c2ccccc12	-6	/	-0.2	-0.4	0	4	-1.8	3.7	10	2
CC(C)(C)OC(=O)N/N=C\c1ccc(OC(=O)c2cccs2)cc1	-8	-7%	-0.3	/	/	/	/	-4.5	-8	-8
COc1ccc(-c2nn(-c3ccccc3)cc2C(=O)NC2CCCCC2C)cc1 (stereo unspecified)	6	0%	0.2	0.8	4	-3	0.0	3.8	0	41
O=C(Nc1cc(S(=O)(=O)N2CCOCC2)ccc1-n1cncn1)c1ccc(Cl)cc1	63*	-6%	0.5	-1.2	7	2	1.4	0.1	10	-3
COc1cccc(NC(=S)NCc2ccco2)c1	11	/	1.3	/	/	/	/	-1.1	-4	-1
O=C(CCCNC(=O)/C(=C/c1ccc(F)cc1)NC(=O)c1ccccc1)OCc1ccccc1	-6	12%	1.0	0.7	-3	4	-5.8	-3.5	19	-7
Cc1noc(C(=O)Nc2sc3c(c2C#N)CCC3)c1Cl	-6	5%	-2.2	-2.1	0	-10	25	1.2	31	/
COCCN(C(=O)CSc1nc(N)cc(=O)[nH]1)c1c(N)n(Cc2ccccc2)c(=O)[nH]c1=O	-4	-3%	-0.8	-1.3	1	10	-0.2	?	/	-4
COc1cccc(-c2coc3c(C)c4oc(=O)c(CC(=O)O)c(C)c4cc23)c1	5	4%	0.4	-2.2	-11	-39	29	24*	37	-4
COc1ccc(OC)c(NC(=O)c2ccc(NS(=O)(=O)c3c(C)noc3C)cc2)c1	-1	0%	0.3	/	/	/	/	1.5	-11	2
C=C1CCN(C(C)C(=O)O)S(=O)(=O)c2ccccc21 (stereo unspecified)	-21	/	-0.5	-0.6	6	14	17	2.6	12	-4
O=C(CC12CC3CC(CC(C3)C1)C2)Nc1c(F)cccc1F	-4	-6%	1.0	/	/	/	/	-4.8	5	/
CCCc1cc(=O)oc2c3c(cc(OCC(=O)NCCN4CCOCC4)c12)OC(C)(C)CC3	33	/	-0.8	-65	/	/	/	?	15	-2
O=C(c1ccncc1)N1CCN(C(=O)c2cccs2)CC1	-17	24%	1.2	/	/	/	/	1.2	-5	3
Cc1ccc(/C(N)=N/OC(=O)C23CC4CC(CC(C4)C2)C3)cc1	2	1%	1.1	/	/	/	/	1.6	-4	6
COc1ccc(NC2=CC(=O)CC(c3ccc(C)cc3)C2)c(OC)c1 (stereo unspecified)	7	10%	-0.3	/	/	/	/	6.9	1	4
COc1ccc(OC)c(NC(=O)c2ccc(NC3=NC4CS(=O)(=O)CC4S3)cc2)c1 (stereo unspecified)	-6	/	/	-14	-12	-7	-7.2	?	-15	-6
Cc1nc2ccccc2c(=O)n1/N=C/c1ccc(OC(F)F)cc1	-2	-11%	-0.5	-0.3	3	-1	-4.8	0.6	6	-4
CC(C)Oc1cccc(C(=O)NC(=S)Nc2ccc(N3CCN(C)CC3)cc2)c1	17	/	0.2	5.7	-18*	-1.5*	2.8*	0.2	9	3
O=C(NCc1ccc2c(c1)OCO2)c1ccc(CS(=O)Cc2ccc(Cl)cc2)o1 (stereo unspecified)	1	/	0.8	-3.2	-1	-19	-7.2	9.1	9	-1
COc1ccc(C=O)cc1Cn1c(C)cc(C)c(C#N)c1=O	-3	/	0.6	-2.2	9	3	-4.0	1.2	-17	-1
The listing continues.
SMILES	T cruzi repl	Vif A3G	Bfl-1 A1 inh	AF4-AF9 inh	Ecoli rRNA inh	Ecoli rRNA inh OD600	Ecoli rRNA inh RFP	RanGTP-Imp inh	Calb FLC	Beta cell apopt
COC(=O)c1ccc(C2C(C(C)=O)=C(C)Nc3ncnn32)cc1 (stereo unspecified)	-16	-7%	-0.1	-0.3	2	3	-1.9	0.2	1	/
CC(=O)Nc1ccc(NC(=O)C2CCCN2S(=O)(=O)c2cccc(C(F)(F)F)c2)cc1 (stereo unspecified)	13	/	0.9	-0.1	6	6	-0.2	-1.0	-14	0
c1ccc(CN(Cc2ccccc2)c2nn[nH]n2)cc1	-3	-7%	-0.7	0.2	-13	-12	-1.2	7.6	-29	-3
CCCn1c(=N)n(CC(=O)c2ccco2)c2ccccc21	-5	17%	-0.2	/	/	/	/	-2.4	34	-2
O=C(Oc1cccc(NC2=NS(=O)(=O)c3ccccc32)c1)c1ccncc1	-1	3%	1.9	-0.3	-9	-11	-4.7	-0.2	-7	/
Cc1onc(-c2ccccc2)c1-c1ccnn1C(=O)NC(C)C	-1	-10%	-0.4	-1.5	-26	-23	-2.0	0.8	3	3
Cc1cc(C)c(C)c(S(=O)(=O)NCc2ccc(C(=O)NCC3CCCO3)cc2)c1C (stereo unspecified)	0	/	0.6	-3.5	7	12	0.5	-1.9	11	-20
CC(=O)[C@H]1[C@H](c2cccc(Cl)c2)C(C#N)(C#N)[C@@H]2c3ccccc3C=CN21	11	11%	0.0	/	/	/	/	/	/	-2
COc1ccccc1C(=O)N1C(CC(=O)Nc2ccc(C)c(C)c2)C(=O)NC2CCCCC21 (stereo unspecified)	-10	-1%	0.1	0.0	1	13	-1.3	0.2	4	-5
Cc1cccc(C)c1NC(=O)CNC(=O)c1ccc(COc2ccccc2)cc1	/	-8%	-0.5	?	5	18	-0.7	/	/	-7
COc1ccc(CN(C)CC(=O)Nc2ccccc2C(F)(F)F)c(OC)c1	-10	?	0.3	/	/	/	/	-1.7	5	2
O=C(Nc1ccc(N2CCOCC2)cc1)C1(S(=O)(=O)c2ccccc2)CC1	-5	?	-0.8	/	/	/	/	0.2	?	0
CCCSCCCNC(=O)Cn1cc2c(n1)CCC(C)C2 (stereo unspecified)	3	-2%	-0.2	-0.7	-1	3	-0.5	?	-1	0
CC(=O)Nc1ccc(S(=O)(=O)N2CCCN(c3nc(C)cc(C)c3C#N)CC2)cc1	6	/	0.0	0.3	-3	-8	1.7	-3.3	14	-3
CC(C)c1nc(SCC(=O)Nc2ccc(N(C)C)cc2)c2ccccc2n1	9	5%	1.7	-3.2	-18	-27	14	-2.8	-3	/
CC(=O)NC(CC(=O)OCC(=O)N1CCN(S(=O)(=O)c2ccc(C)cc2C)CC1)c1ccccc1 (stereo unspecified)	/	-7%	0.9	-3.8	-6	1	-1.2	/	/	-3
O=C(CN1CCOCC1)N/N=C/c1ccc(-c2ccc(C(=O)O)cc2)o1	-18	/	-0.8	3.5	7	5	0.4	5.5	6	2
O=C(C1CCCO1)N1CCN(c2ncccn2)CC1 (stereo unspecified)	-2	8%	0.2	/	/	/	/	-4.5	-2	-4
CCCc1cc(=O)oc2c3c(cc(OCC(=O)NCc4ccccn4)c12)OC(C)(C)CC3	23	/	1.2	-2.1	/	/	/	1.1	6	-2
COc1ccc(C(=O)Nc2ccccn2)cc1S(=O)(=O)N1CCOCC1	-8	/	-0.2	1.9	5	2	-1.9	-0.1	-3	-4
O=Cc1ccc(C(=O)OCC(=O)NCCC2=CCCCC2)cc1	-12	-5%	0.2	-1.7	11	8	1.6	8.1	1	-7
COCCn1c(SCC(=O)Nc2ccc(S(=O)(=O)N3CCOCC3)cc2)nc2ccccc21	14	-10%	1.2	/	/	/	/	-0.9	-6	0
Cn1ccnc1Sc1ccc(/C=N/NC(=O)c2ccccc2O)cc1[N+](=O)[O-]	6	>100µM*	-0.4	/	/	/	/	1.0	6	-6
Cc1ccc(-n2nnnc2SCC(=O)NC(=O)Nc2ccc3c(c2)OCCO3)cc1	10	?	0.2	-12	-2	1	1.6	-2.0	-25	/

Records listed so far marked active in Vif A3G:
canonical_smiles | Vif A3G | AF4-AF9 inh | Ecoli rRNA inh | Ecoli rRNA inh OD600 | Ecoli rRNA inh RFP | RanGTP-Imp inh
Cn1ccnc1Sc1ccc(/C=N/NC(=O)c2ccccc2O)cc1[N+](=O)[O-] | >100µM* | / | / | / | / | 1.0

Of the compounds above, 7 have fluorine:
SMILES	T cruzi repl	Vif A3G	Bfl-1 A1 inh	AF4-AF9 inh	Ecoli rRNA inh	Ecoli rRNA inh OD600	Ecoli rRNA inh RFP	RanGTP-Imp inh	Calb FLC	Beta cell apopt
CCN(CC(=O)Nc1c(F)cccc1F)C(=O)C1CC(=O)N(c2ccccc2OC)C1 (stereo unspecified)	-12	2%	0.6	8.2	13	14	-1.7	1.5	4	4
CN(Cc1cccc(F)c1)C(=O)c1cc(=O)[nH]c2ccccc12	-6	/	-0.2	-0.4	0	4	-1.8	3.7	10	2
O=C(CCCNC(=O)/C(=C/c1ccc(F)cc1)NC(=O)c1ccccc1)OCc1ccccc1	-6	12%	1.0	0.7	-3	4	-5.8	-3.5	19	-7
O=C(CC12CC3CC(CC(C3)C1)C2)Nc1c(F)cccc1F	-4	-6%	1.0	/	/	/	/	-4.8	5	/
Cc1nc2ccccc2c(=O)n1/N=C/c1ccc(OC(F)F)cc1	-2	-11%	-0.5	-0.3	3	-1	-4.8	0.6	6	-4
CC(=O)Nc1ccc(NC(=O)C2CCCN2S(=O)(=O)c2cccc(C(F)(F)F)c2)cc1 (stereo unspecified)	13	/	0.9	-0.1	6	6	-0.2	-1.0	-14	0
COc1ccc(CN(C)CC(=O)Nc2ccccc2C(F)(F)F)c(OC)c1	-10	?	0.3	/	/	/	/	-1.7	5	2
